# NS1 function inh – blocks influenza NS1 protein function; Potency, µM (doses to about 46.1 µM), for the others: at the top dose activity, positive = more growth; S. cerevisiae slowed by influenza A NS1, growth recovery by OD600; actives 0.4% (n = 270,000); AID 2326; active means well fitted rising curve with a large enough effect; inconclusive means small, poorly fitted or top-dose-only effect; inactive means no such curve, though single readings can be large or run the other way; note: nearly all actives have a fitted effect of over 50% in size
#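 Compounds were scored for reversing the slow growth caused by influenza A NS1 in S. cerevisiae, measured by optical density at 600 nm. Assay medium contained 2% galactose at pH 6.0; NS1-free yeast of the same strain were the positive control.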
# SARS PLP yeast – inhibitors of SARS-CoV papain-like protease in yeast; S. cerevisiae expressing SARS-CoV PLpro, growth rescue; control for the full effect not named in the record; Potency, µM (highest dose often 32.9 µM), for the others: at the top dose activity, positive = growth rescue; actives 0.19% (n = 330,000); AID 485353; active means well fitted rising curve with a large enough effect; inconclusive means small, poorly fitted or top-dose-only effect; inactive means no such curve, though single readings can be large or run the other way; note: 0% is about no effect; nearly all actives have a fitted effect of over 55% in size; growth read by luminescence after 48 h
# Cruzain Triton – blocks cruzain activity in presence of Triton detergent | actives 0.43% (n = 200,000) | P25779 | purified cruzain, Z-FR-AMC fluorescence, 0.01% Triton | Potency, µM, inactives show max response, negative = inhibition, hits mostly inhibitors;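 note: plate controls were neutral wells for no effect and buffer without enzyme for full effect; nearly all actives have a fitted effect of over 40% in size; top concentration of the series not given in the record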
# Target sequence (P25779 123-467 limits assumed): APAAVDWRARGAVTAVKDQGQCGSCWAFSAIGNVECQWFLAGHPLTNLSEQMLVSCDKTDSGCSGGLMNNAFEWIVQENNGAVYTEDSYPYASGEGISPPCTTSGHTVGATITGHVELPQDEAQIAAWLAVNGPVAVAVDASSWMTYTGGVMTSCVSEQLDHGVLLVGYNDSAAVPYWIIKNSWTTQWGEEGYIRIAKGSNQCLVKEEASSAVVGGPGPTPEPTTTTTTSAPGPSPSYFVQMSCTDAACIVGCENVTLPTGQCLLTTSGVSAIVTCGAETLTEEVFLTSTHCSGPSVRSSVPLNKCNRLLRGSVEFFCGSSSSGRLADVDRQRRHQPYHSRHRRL
#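 In this qHTS format, compounds are incubated with 1.5 nM cruzain for 15 min at room temperature before 2 uM Z-FR-AMC is added. Release of AMC is followed at 360/450 nm, and progress is taken as the 60 s fluorescence difference.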
# Lassa entry inh – inhibitors of Lassa virus binding or cell entry | actives 1.2% (n = 300,000) | Lassa virus pseudotype entry inhibition, cell reporter; control for the full effect not named in the record | AID 540256 | Potency, µM (top dose mostly 37.9 µM), for the others: top-dose activity change, negative = inhibition, usual class: inhibitors; active means well fitted inhibition curve with a large enough effect; inconclusive means small, poorly fitted or top-dose-only effect, or effect the other way; inactive means flat fitted curve, though single readings scatter; tested in HEK293 cells; note: % is set by controls: 0 for no effect and ±100 for the full control effect; nearly all actives have a fitted effect of over 50% in size; luciferase read-out
# RE007 growth inh – less growth of the S. pombe RE007 Vpr strain | S. pombe RE007 Vpr strain, BacTiter-Glo ATP luminescence, 24 h; control for the full effect not named in the record | Potency, µM (top dose mostly 92.2 µM), without a hit: top-dose activity change, negative = less growth | actives 0.21% (n = 360,000) | AID 651644; active = well fitted falling curve with a large enough effect; inconclusive = small, poorly fitted or top-dose-only effect; inactive = no such curve, though single readings can be large or run the other way;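 note: % is set by controls: 0 for no effect and ±100 for the full control effect; nearly all actives have a fitted effect of over 50% in size; the assay follows cell death caused by Vpr and the record does not say whether a fall means rescue or toxicity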
#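 Fission yeast RE007 carrying one integrated HIV-1 vpr copy, seeded at OD 0.01 in PMG+AL medium with 23 nL pinned compound. Grown 24 h at 30 degrees; viability read by BacTiter-Glo luminescence after 5 min.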
# Cruzain noTriton – inhibitors of Trypanosoma cruzi cruzain without detergent | purified cruzain, Z-FR-AMC fluorescence, no detergent | P25779 | actives 2.3% (n = 200,000) | Potency, µM, without a hit: max response, negative = inhibition, actives largely listed as inhibitors;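 note: plate controls were enzyme without inhibitor for no effect and buffer without enzyme for full effect; nearly all actives have a fitted effect of over 40% in size; top concentration of the series not given in the record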
#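 Purified cruzain at 1.5 nM, pre-incubated 15 min with compound at room temperature in 100 mM sodium acetate pH 5.5, 5 mM DTT, 0.00005% Triton X-100. Reaction started with 2 uM Z-FR-AMC; AMC fluorescence increase over 60 s gives rate.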
# Marburg entry inh – Marburg virus entry inhibition. Marburg virus pseudotyped entry inhibition, cell reporter; control for the full effect not named in the record; about a third of the inactives were read at about 46 µM. Potency, µM (top dose mostly 37.8 µM), for inactives: at the top dose activity change, negative = inhibition, hits mostly inhibitors. actives 1.8% (n = 300,000). AID 540276; active = well fitted inhibition curve with a large enough effect; inconclusive = small, poorly fitted or top-dose-only effect, or effect the other way; inactive = flat fitted curve, though single readings scatter; tested in HEK293 cells; about a fifth of its hits are not listed in these tables; note: % is set by controls: 0 for no effect and ±100 for the full control effect; luciferase read-out
# 2A StopGo – FMDV 2A StopGo reporter, luciferase signal; Potency, µM (top dose mostly 57.9 µM), for inactives: at the highest dose signal change, negative = less light; actives 1.2% (n = 410,000); human cells with a luciferase reporter of 2A StopGo recoding; control for the full effect not named in the record; active = well fitted falling curve with a large enough effect; inconclusive = small, poorly fitted or top-dose-only effect; inactive = no such curve, though single readings can be large or run the other way; tested in HEK293T cells; note: % is set by controls: 0 for no effect and ±100 for the full control effect; nearly all actives have a fitted effect of over 45% in size; luciferase light after 4 h
# * marks the source's active call; other numbers are inactive results; ? = inconclusive; . = no result given; & = joins results of further samples; [ ] = another dose, or the depositor's remark. Unless noted, calls come from the whole dose curve; as a rule, active = well fitted curve in the direction sought with a large enough effect; inconclusive = small, poorly fitted or top-dose-only effect, or another doubt; inactive = no such curve, though single readings can be large; an effect the other way counts as inactive or inconclusive. Potency is the fitted concentration of half-maximal effect.
SMILES,NS1 function inh,SARS PLP yeast,Cruzain Triton,Lassa entry inh,RE007 growth inh,Cruzain noTriton,Marburg entry inh,2A StopGo
CSc1nc(C)cc(OCCNS(=O)(=O)c2cc(C)ccc2C)n1,-8%,19%,-0.8%,16%,-4%,10%,-9%&-9%,9%
COc1cccc(C2CC(c3cccs3)=NN2C(=O)CSC2=NCCS2)c1OC (stereo not drawn),-10%,-4%,.,?,8%,.,?,-20%
O=C(Nc1ccc(OC(F)F)cc1)c1ccccn1,.,-1%,.,18%,18%,.,9%[46.1 µM],19%
CC(Oc1ccccc1Cl)C(=O)N1CCN(CCc2ccccn2)CC1 (stereo not drawn),.,.,1.0%,-3%[46.1 µM],.,15%,6%[46.1 µM],-21%
O=C(c1ccccc1NS(=O)(=O)c1ccc(F)cc1)N1CCc2ccccc21,-15%,?,-5.3%,16%,18%,-18%,0%,0%
COc1ccc(C(=O)C2CCN(CC(=O)Nc3ccc(C)cc3)CC2)cc1,-8%,3%,.,8%[46.1 µM],-8%,.,?,-22%
C[n+]1c(-c2ccccc2)cc(CCCCc2cc(-c3ccccc3)[n+](C)c(-c3ccccc3)c2)cc1-c1ccccc1,.,-1%,.,-19%,-25%,.,?,?
Cc1ccc(CN(C(=O)Cc2cccs2)C(C(=O)NC2CCCC2)c2ccncc2)cc1 (stereo not drawn),-17%,6%,-0.2%,-16%,-8%,-4%,-33%,-24%
O=NC1=C(c2c(O)[nH]c3ccccc23)CCCC1,4%,15%,5.2%,-16%,-1%,-3%,-11%,.
CCc1ccc(OCC(=O)OCC(=O)c2ccc3c(c2)NC(=O)CO3)cc1,4%,1%,10%,?,-17%,?,0%,.
Cc1ccc(NC(=O)Cn2c(=O)c3cccn3c3ccccc32)c(Cl)c1,-14%,1%,.,-7%[46.1 µM],-4%,.,-12%[46.1 µM],-15%
Cc1cc(/C=C(/C#N)c2cccc(Cl)c2)c(C)n1C,-20%,-4%,-1.0%,11%,-8%,3%,?,8%
O=C(CCN1C(=O)/C(=C\c2ccccc2)SC1=S)N1CCOCC1,1%,4%,.,-11%,11%,.,-16%[46.1 µM],0%
Cc1ccc(C(=O)N2CC3(C)CN(C(=O)c4ccc(C)cc4)CC(C)(C2)C3=O)cc1,17%,-4%,1.0%,0%,10%,8%,-3%,14%
COc1cccc(CN2CCC(n3nccc3NC(=O)CCOc3ccccc3)CC2)c1O,.,.,.,?,-12%,.,?,-12%

# Reprinted at random: three entries already listed, in no set order.
SMILES,NS1 function inh,SARS PLP yeast,Cruzain Triton,Lassa entry inh,RE007 growth inh,Cruzain noTriton,Marburg entry inh,2A StopGo
Cc1cc(/C=C(/C#N)c2cccc(Cl)c2)c(C)n1C,-20%,-4%,-1.0%,11%,-8%,3%,?,8%
COc1cccc(CN2CCC(n3nccc3NC(=O)CCOc3ccccc3)CC2)c1O,.,.,.,?,-12%,.,?,-12%
Cc1ccc(C(=O)N2CC3(C)CN(C(=O)c4ccc(C)cc4)CC(C)(C2)C3=O)cc1,17%,-4%,1.0%,0%,10%,8%,-3%,14%

# Compounds listed so far that have a Cl atom (3):
SMILES,NS1 function inh,SARS PLP yeast,Cruzain Triton,Lassa entry inh,RE007 growth inh,Cruzain noTriton,Marburg entry inh,2A StopGo
CC(Oc1ccccc1Cl)C(=O)N1CCN(CCc2ccccn2)CC1 (stereo not drawn),.,.,1.0%,-3%[46.1 µM],.,15%,6%[46.1 µM],-21%
Cc1ccc(NC(=O)Cn2c(=O)c3cccn3c3ccccc32)c(Cl)c1,-14%,1%,.,-7%[46.1 µM],-4%,.,-12%[46.1 µM],-15%
Cc1cc(/C=C(/C#N)c2cccc(Cl)c2)c(C)n1C,-20%,-4%,-1.0%,11%,-8%,3%,?,8%

# Next section:
SMILES,NS1 function inh,SARS PLP yeast,Cruzain Triton,Lassa entry inh,RE007 growth inh,Cruzain noTriton,Marburg entry inh,2A StopGo
Cc1ccc(-c2nnn(CC(=O)N(Cc3cccs3)C(C(=O)NC3CCCC3)c3ccncc3)n2)cc1 (stereo not drawn),-20%[9.22 µM],22%,-6.5%,?,-4%,1%,?,.
Fc1ccc(NC(=S)N/N=C/c2ccc(F)c(F)c2)cc1,.,28%,.,?,2%,.,9%[46.1 µM],6%
CCOc1ccc(OCC)c(NC(=O)CSc2nnc(-c3cccnc3)o2)c1,-30%,-3%,1.0%,1%,0%,-6%,2%,-16%
Cc1cccc(NC(=O)c2sc(Cl)nc2-c2ccccc2)c1,?,5%,-4.4%,1%,-8%,-16%,-11%,-29%
COC(=O)C1=C(N)Oc2cc(C)n(Cc3ccccc3)c(=O)c2C1c1ccccc1 (stereo not drawn),5%,-4%,1.4%,-22%,6%[3.69 µM],-10%,-17%,-12%
Cc1ccccc1-c1nnc(CN2CCN(C(=O)c3ccco3)CC2)o1,-6%,1%,.,9%,-14%,.,11%[46.1 µM],7%
COc1ccc(C(=O)N(c2ccc(OC)cc2)S(=O)(=O)c2ccc3c(c2)n(C)c(=O)n3C)cc1,.,.,-4.5%,?,.,?,?,4%
Cc1ccc(S(=O)(=O)NC2CC(C)(C)N(O)C(C)(C)C2)cc1,.,-5%,.,7%,16%,.,1%,0%
C=CCn1c(O)c(N=O)c2ccccc21,9%,1%,.,-5%[46.1 µM],-7%,.,-10%[46.1 µM],-18%
Cc1ccc(OCCC(=O)N2CCN(c3ccc(O)cc3)CC2)cc1,-1%,-2%,.,-24%[46.1 µM],1%,.,?,7%
CCN(CC)CCN(Cc1cc2cc3c(cc2[nH]c1=O)OCCO3)C(=S)NCCCN(C)C,6%,2%,.,.,-1%,.,.,-4%
C=CCn1c(=O)c2ccc(C(=O)NCc3ccccc3)cc2n(Cc2cccc(Cl)c2)c1=O,-2%,-9%,-6.5%,6%,1%,-7%,9%,-3%
C=CCNC(=S)NCC,3%,2%,.,.,1%,.,.,20%
CCOc1cc(C2C(C(=O)c3ccco3)=C(O)C(=O)N2Cc2ccccc2)ccc1O (stereo not drawn),?,-1%,.,0%[46.1 µM],24%,.,13%[46.1 µM],39%[activator]
O=C(COC(=O)c1ccccc1)Nc1cccc(S(=O)(=O)NC2=NCCCCC2)c1,4%,26%,-2.8%,?,-1%,0%,?,-13%
CS(=O)(=O)N(CC(=O)N1CCc2ccccc2C1)Cc1ccccc1,3%,6%,2.1%,-33%,-1%,3%,9%,.
CCNC(=O)NC(=O)CSc1ccc(NC(C)=O)cc1,0%,0%,2.4%,5%,1%,2%,1%,-13%
COc1cccc(NC(=O)Cn2c(=O)n(CCCC(=O)NCc3ccco3)c(=O)c3ccccc32)c1,-15%,1%,-7.1%,7%,-2%,-10%,?,-25%
O=[N+]([O-])c1ccc(/C=N/Nc2nc3ccccc3o2)cc1,1%,1%,.,.,-7%,.,.,46%[activator]
CS(=O)(=O)c1sc2nc(-c3ccccc3)cc(-c3ccccc3)c2c1N,8%,2%,-14%,?,3%,?,?,-23%
CC(=O)N1CCC2(CC1)C(C#N)=C(N)Oc1n[nH]c(CSc3ccc(C)cc3)c12,-1%,0%,-0.4%,-3%,-2%,-7%,3%,-1%
CCC(=O)N1CCc2cc(S(=O)(=O)CCC(=O)Nc3ccc(C)c(F)c3)ccc21,-3%,3%,-0.9%,-2%,-2%,6%,1%,-16%
Cc1cc(C)c(S(=O)(=O)N(C2=NCCS2)S(=O)(=O)c2c(C)cc(C)cc2C)c(C)c1,-7%,17%,-9.7%,?,-6%,?,-19%,-21%
O=[N+]([O-])c1ccccc1OCCCNCc1ccccc1,.,-2%,.,2%,-17%,.,-22%[46.1 µM],1%
O=C(c1ccc(-n2ccnc2)cc1)N1CCCC(CO)(Cc2cccc(Cl)c2)C1 (stereo not drawn),-14%,1%,.,.,-1%,.,.,-20%
O=C(Cn1cncn1)NCc1cc(F)ccc1F,-5%,1%,.,25%[46.1 µM],3%,.,4%[46.1 µM],-12%
O=C1CC(c2cccs2)Sc2nc3ccccc3n21 (stereo not drawn),-43%,-15%,-4.6%,8%,-24%,-15%,0%,29%
COc1ccc(N2CCN(c3nc4ccccc4nc3NS(=O)(=O)c3ccccc3)CC2)cc1,-9%,-3%,5.1%,?,26%,?,-14%[46.1 µM],0%
COc1ccccc1N1CCN(S(=O)(=O)c2ccc(Cl)s2)CC1,-55%,-14%,-6.6%,-4%,0%,-6%,?,.
CCOC(=O)c1sc(NC(NC(=O)c2ccco2)(C(=O)OC)C(F)(F)F)nc1C (stereo not drawn),-3%,2%,-2.8%,?,14%,5%,0%[46.1 µM],?
CCOC(=O)CC1ON(C)C(=O)N1c1ccc([N+](=O)[O-])cc1 (stereo not drawn),-9%,-12%,1.1%,-1%,-9%,9%,0%,-15%
Cn1ccnc1SCc1cc(=O)[nH]c2ccccc12,-8%,2%,-0.3%,32%,2%,-7%,15%,.
OC1(c2cccnc2)CCN(Cc2nnnn2Cc2ccccc2)CC1,.,2%,.,-18%,3%,.,0%[46.1 µM],2%
O=c1nc(/C=C/c2ccc(-c3ccc(F)cc3)o2)cc(C(F)(F)F)[nH]1,6%,1%,-0.3%,.,.,?,0%,.
O=C(Cn1nnc(-c2ccccc2)n1)N1CCN(c2ccc(F)cc2)CC1,.,3%,.,?,-20%,.,?,-1%
COc1ccc(OC)c(NC(=O)NNC(=O)COc2ccc([N+](=O)[O-])cc2)c1,-46%,0%,.,14%,-23%,.,-7%,-20%
O=C(CSc1ncc(-c2ccc(F)cc2)[nH]1)Nc1cccc(O)c1,7%,-1%,-6.4%,-3%,0%,-1%,12%,.
Cc1cc2oc(C(=O)N(Cc3ccccc3)C3CCS(=O)(=O)C3)c(C)c2cc1C (stereo not drawn),19%,-2%,.,-22%,9%,.,?,-9%
CN(C)c1nc2c(c(=O)[nH]c(=O)n2C)n1CCOc1ccccc1,-3%,-3%,.,.,2%,.,.,-17%
O=C(Cc1cccs1)Nc1nnc(CCc2ccccc2)s1,-7%,0%,-2.9%,3%,-12%,-14%,7%,-7%
